PrP UTR inh: suppresses PrP 5' UTR mRNA reporter expression | 340,000 tested, 0.35% active | inhibition, % (test concentration not listed) | cell-based PrP 5' UTR mRNA reporter, plate reader;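 active = every replicate at 50% or more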;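 also: 0 = median of the neutral control wells; tested in H4 reporter cells; numbers are from one replicate; inactives centre near -14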
Mtb hypoxia rep: reduces hypoxia-regulated biosensor signal in M. tuberculosis; M. tuberculosis hypoxia-regulated fluorescent reporter, fluorescence; fluorescence inhibition, % (concentration not given with the values); 300,000 tested, 0.1% active; AID 1159583;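 active = 35 to 45% if threefold the growth effect, above 45% if 1.5-fold the growth effect; inactive = the rest, general growth blockers included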;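 also: wells of about 50 µL received 100 nL stock; 0% = vehicle wells and 100% = reference inhibitor wells; whole bacteria with a GFP reporter of the hypoxia response; strong numbers were not always called active; many hits fall short of the cut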
Bead autofluor: counter-screen for toxin protease inhibitors: compound fluorescence; compound autofluorescence counterscreen, microsphere flow cytometry; active compounds read high; fluorescence intensity (no concentration beside the values); 360,000 tested, 3.1% active;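 active = at least 3 SD above the mean of all compounds, about 16000 in these data; inconclusive = too few beads counted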;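 also: 100 nL of 1 mM stock went into each well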
RN4220 kill: kills Staphylococcus aureus RN4220; S. aureus RN4220 growth, OD600, 16 h; inhibition, % (test concentration not listed); 330,000 tested, 0.33% active;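 active = z-score of -3 or lower and OD600 up to 0.18 on both plates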;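 also: plate controls were untreated cells for no effect and reference antibiotic for full effect; stock transfer was 100 nL into about 80 µL; one replicate is shown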
BJeLR lethal: kills HRASV12-expressing BJeLR cells | AID 1554 | inhibition, % (test concentration not listed) | BJeLR (HRASV12) viability, CellTiter-Glo ATP luminescence, 48 h; reference of the scale not given here | 300,000 tested, 0.17% active;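 active = replicate mean above 50%; inconclusive = above 50% but judged a plate artefact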;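 also: 50 nL library stock added to about 25 µL; numbers are from one replicate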
ugtP null kill: compounds lethal to S. aureus RN4220 ugtP deletion mutant; OD600 growth, 16 h; some inactives read as strong as hits; growth inhibition, % (no concentration beside the values); 330,000 tested, 0.54% active; AID 1259309;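 active = z-score under -3 and OD600 up to 0.15 on both plates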;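 also: plate controls were untreated wells for no effect and antibiotic for full effect; wells of about 80 µL received 100 nL stock; the first replicate is given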
Mtb hypoxia rep growth: further read-out of Mtb hypoxia rep, marked with its call; growth inhibition, %; measured here: M. tuberculosis growth (absorbance);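 0% = vehicle and 100% = reference antibiotic; read after six days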
An asterisk follows results filed as active; ? = inconclusive; . = no result given.

SMILES	PrP UTR inh	Mtb hypoxia rep	Mtb hypoxia rep growth	Bead autofluor	RN4220 kill	BJeLR lethal	ugtP null kill
Cc1cc(C)n(C(=O)C2CCCN2S(=O)(=O)c2ccc(Cl)cc2)n1 (centres undefined)	-16.5	0.0	9.3	2620	4.5	-8.9	18.6
O=C(O)c1nn(-c2ccccc2-c2n[nH]c(=O)[nH]c2=O)c(=O)[nH]c1=O	.	7.5	7.6	.	2.8	2.1	4.0
O=c1[nH]c2cc(Cl)ccc2n(CCNc2ncc(C(F)(F)F)cc2Cl)c1=O	3.8	.	.	2518	-2.0	2.0	-6.7
COc1ccc(NC(=O)C(OC(=O)c2cnccn2)c2ccccc2)cc1Cl (centres undefined)	-37.7	-3.8	-4.9	5604	2.1	4.9	6.1
COc1cc(OC)c(C(=O)O/N=C(\N)c2ccc(C)cc2)cc1OC	-4.0	6.8	0.4	3556	0.5	-5.8	3.6
COc1ccc2oc(=O)c(C(=O)NCc3ccco3)cc2c1	-9.8	0.5	-6.3	5034	3.9	15.9	8.2
COc1ccccc1C1C(c2cccc(Cl)c2)=NN(c2ccc(Br)cc2)C1C(=O)N1CCOC1=O (centres undefined)	.	2.8	0.8	.	-1.0	.	11.7
CCC(=O)N(Cc1cc2cc(C)c(C)cc2[nH]c1=O)C1CCCCC1	-11.0	7.8	6.7	3860	4.3	6.8	-9.2
COc1ccccc1NC(=O)Nc1nc(C(C)(C)C)cs1	-27.7	10.9	12.9	3997	-4.9	0.7	-23.0
CCOc1ccccc1-n1nnnc1SCC(=O)NC(=O)NCc1ccco1	-16.0	8.1	27.4	3832	1.4	-12.7	-0.1

One compound at a time, as listed above. Order of screens: PrP UTR inh | Mtb hypoxia rep | Mtb hypoxia rep growth | Bead autofluor | RN4220 kill | BJeLR lethal | ugtP null kill
CCC(=O)N(Cc1cc2cc(C)c(C)cc2[nH]c1=O)C1CCCCC1 in the list: -11.0 | 7.8 | 6.7 | 3860 | 4.3 | 6.8 | -9.2
COc1ccc2oc(=O)c(C(=O)NCc3ccco3)cc2c1 in the list: -9.8 | 0.5 | -6.3 | 5034 | 3.9 | 15.9 | 8.2

Next part
SMILES	PrP UTR inh	Mtb hypoxia rep	Mtb hypoxia rep growth	Bead autofluor	RN4220 kill	BJeLR lethal	ugtP null kill
CCN1CCN(c2nc3c(c(=O)n(C)c(=O)n3C)n2Cc2cccc3ccccc23)CC1	-7.2	-5.7	1.8	13238	4.0	10.7	5.1
CCN1C(=O)c2cccc3c(S(=O)(=O)NCCCN4CCOCC4)ccc1c23	-8.3	-4.8	3.6	4190	1.2	-8.5	5.3
NCCc1nnc(SCc2ccccc2Cl)o1	-28.5	-11.7	5.5	3185	-1.0	-0.1	-5.1
CCOC(=O)Cc1cc(=O)[nH]c(N=C(N)Nc2ccc(C)c(C)c2)n1	.	11.8	8.5	.	27.4	.	19.8
COCCNS(=O)(=O)c1ccc(OCC(=O)N2CCc3ccccc3C2)c(Cl)c1	-12.7	12.8	5.6	3708	4.6	-11.0	13.7
O=C(CCS(=O)(=O)c1ccccc1Cl)Nc1ccc(S(=O)(=O)Nc2ncccn2)cc1	-4.2	3.2	12.6	5393	-3.2	0.2	-8.7
COCCN(C(=O)COC(=O)CCC(=O)c1cccs1)c1c(N)n(Cc2ccccc2)c(=O)[nH]c1=O	-11.1	2.3	9.3	6099	1.2	-4.6	4.2
O=C(c1ccc(S(=O)(=O)Nc2ccccc2F)cc1)N1CCC1	-25.8	-1.5	-5.9	4455	6.2	13.8	1.9
COc1ccc2[nH]c(=O)c(C(c3nnnn3CC3CCCO3)N3CCCCC3)cc2c1 (centres undefined)	4.9	11.6	8.1	4658	3.3	1.5	4.6
COc1cccc(C2N(c3cccc(Cl)c3)C(=O)C3CCCN32)c1OC (centres undefined)	-5.6	.	.	5679	3.1	-4.9	3.1
Cc1ccc(CSCC(=O)N(C)CC(=O)Nc2ccc(Br)cc2C)cc1	-19.8	5.0	11.3	5451	-2.7	-5.6	-5.8
O=C(CSc1ccc(Br)cc1)Nc1cccc(S(=O)(=O)N2CCOCC2)c1	-24.0	0.7	-6.9	?	-0.2	.	8.4
CC1(C)CC(N2CCOCC2)=CC(=[N+]2CCOCC2)C1	-14.4	-5.6	-2.0	4565	4.0	-1.2	0.4
N#Cc1c(-c2ccccc2)nc(-c2ccccc2)[nH]c1=O	-9.1	-0.4	-1.2	5661	12.3	-5.6	3.7
CC(C)=CCN1CCN(Cc2cc(C(C)C)n[nH]2)CC1CCO (centres undefined)	-18.4	-5.8	-13.1	4363	2.7	-8.4	13.0
Cc1ccc(-n2c(=O)c3ccccc3n(CC(=O)C(C)(C)C)c2=O)cc1	-20.9	-5.4	-7.2	4615	14.7	8.3	6.8
CC(=O)c1c(N2CCOCC2)nc(=S)n(-c2ccc([N+](=O)[O-])cc2)c1C	-30.9	0.1	7.5	.	-8.0	7.4	-5.2
Cc1nn(Cc2ccc(C(=O)N/N=C/c3ccncc3)o2)c(C)c1Cl	-17.3	.	.	6608	.	-2.6	.
Cc1nc(NS(=O)(=O)c2ccccc2)sc1NC(=O)OCCN(C)C	-20.3	.	.	4984	6.6	5.4	2.4
Cc1c(C)c2ccc(OC(C)C(=O)NCCN3CCOCC3)c(C)c2oc1=O (centres undefined)	-6.3	3.7	2.0	6532	0.3	-2.4	0.7
COc1ccc2c(CCNC(=O)Nc3ccccc3)c[nH]c2c1	-1.8	4.2	9.6	2012	4.1	-5.1	-2.9
CC(NC(=O)CCSc1nc(-c2ccc3c(c2)OCO3)cc(C(F)(F)F)n1)c1ccccc1 (centres undefined)	-19.5	8.4	10.7	4116	-3.1	9.8	10.4
COc1ccc(NC(=O)N2CCCc3cc(C)ccc32)c(OC)c1	-2.9	0.0	-4.9	?	2.2	3.0	-1.5
CC(=O)N(Cc1cccs1)Cc1cc2cc(C)c(C)cc2nc1Cl	-10.5	14.1	14.2	4530	4.3	-4.7	-2.2
CCCCNC(=O)c1cc2c(=O)n3cccc(C)c3nc2n(CCN2CCOCC2)c1=N	1.5	.	.	3508	.	9.7	.
Cc1ccc(NC(=O)CON=Cc2ccc(N(C)C)cc2)cc1	.	17.6	5.1	.	8.2	.	1.4
O=C(Nc1nc2c(s1)CCCC2)c1ccc(S(=O)(=O)N2CCCc3ccccc32)cc1	-30.9	-5.6	3.3	2019	-1.2	10.7	1.8
CCc1cc(=O)oc2c(C)c(OC(C)C(=O)N3CC[C@@]4(O)CCCC[C@H]4C3)ccc12 (some centres undefined)	-27.0	.	.	5496	5.5	-11.0	6.3
O=C(NN=C1CCCCC1)Nc1ccccc1Cl	-10.3	-2.7	7.2	3961	-0.8	-4.6	-3.5
CCOC(=O)N1CCN(C(=O)Cn2nc(-c3ccc(Cl)cc3)ccc2=O)CC1	-16.9	-4.5	1.5	2559	5.2	-6.4	-0.7
O=C(CC1SC(N2CCCC2)=NC1=O)Nc1ccc(C(=O)Nc2ncccc2O)cc1 (centres undefined)	-26.8	3.7	5.9	?	0.7	4.3	-3.0
CC(C)[C@H](NC(=O)c1cccc(S(=O)(=O)N2CCOCC2)c1)C(=O)OCC(=O)Nc1cccc(Br)c1	-17.7	9.1	9.1	3327	-2.2	.	-2.9
O=C(NCN1CCN(c2ccccc2F)CC1)c1ccccc1	-4.4	14.1	10.7	23676*	5.7	-2.7	-7.4
COc1ccc(NC(=O)c2ccc(-c3ccc([N+](=O)[O-])cc3)o2)cc1	-32.2	8.4	10.7	?	0.2	-7.7	5.6
CCCn1c2c(c(O)c(C(=O)Nc3nc4ccccc4s3)c1=O)CCCC2	-10.6	-2.9	0.2	4493	0.6	1.5	4.5
COc1cc2c(cc1OC)C1=C(C#N)CC/C(=N\S(=O)(=O)c3cccc(Cl)c3)N1CC2	-1.0	.	.	15511	.	-24.4	.
COCCCn1cnnc1SCC(=O)Nc1ccc(S(=O)(=O)N2CCCC2)cc1	-10.2	.	.	2357	2.5	-3.9	-2.3
COc1ccc(N2C(=O)CC(N(Cc3ccc(S(N)(=O)=O)cc3)C(C)=O)C2=O)cc1 (centres undefined)	-5.7	.	.	4739	-1.0	1.6	5.2
O=C(Nc1ccc(S(=O)(=O)Nc2ccccn2)cc1)c1cccc([N+](=O)[O-])c1	2.2	12.6	17.3	5035	2.1	3.6	0.1
Cc1nn(CC2CCCCC2)c(N)c1-c1ccccc1	-33.3	15.6	6.7	3262	5.7	10.0	2.9

In the list so far, 2 contain a thiophene ring, fused or not.
SMILES	PrP UTR inh	Mtb hypoxia rep	Mtb hypoxia rep growth	Bead autofluor	RN4220 kill	BJeLR lethal	ugtP null kill
COCCN(C(=O)COC(=O)CCC(=O)c1cccs1)c1c(N)n(Cc2ccccc2)c(=O)[nH]c1=O	-11.1	2.3	9.3	6099	1.2	-4.6	4.2
CC(=O)N(Cc1cccs1)Cc1cc2cc(C)c(C)cc2nc1Cl	-10.5	14.1	14.2	4530	4.3	-4.7	-2.2

Remaining list, next part.
SMILES	PrP UTR inh	Mtb hypoxia rep	Mtb hypoxia rep growth	Bead autofluor	RN4220 kill	BJeLR lethal	ugtP null kill
CC12CN3CC(C)(CN(C1)C3c1cccs1)C2 (centres undefined)	-19.4	-0.8	-3.6	8492	-1.6	7.1	-3.7
COc1ccc2ccccc2c1CNCc1ccccn1	-2.7	6.5	9.0	21967*	2.9	4.3	-3.1
CCCOc1cccc(C(=O)Nc2cccnc2)c1	-19.9	12.7	7.0	7314	-3.5	1.9	1.6
CC(=O)Nc1ccc(S(=O)(=O)c2ccc([N+](=O)[O-])cc2)cc1	-8.7	21.4	14.6	3267	97.1*	6.1	71.8
O=C(COc1ccc(F)c(Cl)c1)N1CCN(c2ccccn2)CC1	-4.7	5.9	4.4	6764	0.7	-9.6	3.6
CC1(C)CC(=O)C=C(c2cccs2)C1	-17.3	9.9	1.2	3673	5.5	2.6	2.8
O=C(NN=Cc1ccc(N2CCOCC2)c([N+](=O)[O-])c1)c1ccc(F)cc1	.	8.5	10.6	.	0.0	.	-2.2
Cc1ccc(Nc2nc(-c3sc(NC(=O)c4ccco4)nc3C)cs2)cc1	-18.8	-2.6	12.3	3848	26.5	-2.1	41.5
CCN1CCN(c2cc(C)c3cc(NC(=O)c4cccnc4Cl)ccc3n2)CC1	-19.5	22.1	20.0	4170	4.6	4.0	15.6
CC/C=C/C(=O)N1CC2(CC(c3cccc(NC(=O)COc4ccc(Cl)cc4)c3)=NO2)C[C@H]1C(N)=O (some centres undefined)	-23.0	.	.	2762	.	-11.7	.
O=C(CCCN1C(=O)/C(=C/c2ccccc2Cl)SC1=S)NNC(=O)c1ccc(Cl)cc1Cl	29.5	-5.3	5.7	4911	-0.5	-5.1	-14.4
Cc1ccc2nc(SCC(=O)OCc3ccccc3)nc(=O)n2c1	-18.9	-9.6	-6.4	5317	-0.8	-4.3	0.0
CN1CCN(C(=O)c2ccccc2-c2nc(-c3ccccc3)no2)CC1	-28.1	.	.	5011	3.4	.	-6.2
O=C(COc1ccccc1[N+](=O)[O-])N(Cc1ccccc1)c1ccccn1	3.4	7.3	7.6	2493	5.0	-0.4	10.5
Cc1csc(NC(=O)c2c(-c3c(Cl)cccc3Cl)noc2C)n1	-15.7	-17.1	-16.5	2433	-3.2	-2.0	-14.4
COc1cc(/C=C2\C(=N)N3N=C(S(C)(=O)=O)SC3=NC2=O)cc(OC)c1OCCOc1cccc(C)c1	-18.7	21.9	14.2	3880	6.9	3.6	3.7
Cn1cccc1C=Nn1c(-c2ccccc2)n[nH]c1=S	.	3.2	5.8	.	8.3	.	-6.3
CC1(OC(=O)CCc2ccccc2)C(=O)C=C2C=C(c3ccc(C#N)cc3)N(Cc3ccccc3)C=C2C1=O (centres undefined)	4.6	0.3	3.1	2613	-4.5	-4.4	3.4
CCOc1ccc(C(=O)O)cc1OC	-22.6	.	.	3423	-1.1	-3.8	-3.9
CC1CCC2C(=O)N(c3ccc(C(=O)Oc4cccc5cccnc45)cc3)C(=O)C2C1 (centres undefined)	-17.8	3.1	-4.4	1938	4.6	-0.3	8.0
Cc1ccc(N(CC(O)CN2CCCCC2)S(=O)(=O)c2ccccc2)cc1 (centres undefined)	-23.4	6.8	-5.0	6078	2.6	5.0	4.4
O=C(CN1C(=O)NC2(CCCC2)C1=O)Nc1cc(C(F)(F)F)ccc1N1CCCCC1	-5.6	1.2	-2.5	?	2.2	-9.3	0.2
Cc1cccc(C(=O)NCCC(=O)Nc2ccc(C)c(F)c2)c1	7.6	0.0	-5.1	2898	3.7	0.2	4.3
CCC(CO)Oc1cc(NCc2ccc(C)c(C)c2)c2ncn(C(C)C)c2c1 (centres undefined)	-12.8	18.6	10.5	3989	2.5	.	11.9
